fixLJ activator – B. multivorans fixK reporter activation. B. multivorans fixK-promoter GFP reporter, 18 h; hits give high values. AID 1918990. z-score (no concentration beside the values). hit rate 0.3% among 29,000;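 active means replicate mean overnight rise in green fluorescent reporter signal, 3 or more SD over negative controls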;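 further: score is relative to vehicle wells of the plate; 300 nL library stock went into each well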
An asterisk follows results filed as active. A portion of the library; rates above refer to the full screens.

SMILES | fixLJ activator
CC(C)CCNC(=O)CN1C(=O)COc2ccc(S(=O)(=O)N3CCOCC3)cc21 | 0.31
COc1ccccc1OCCn1c(C(C)Oc2ccccc2)nc2ccccc21 (stereo not drawn) | 0.67
Cc1cc(C)cc(OCC(=O)Nc2cccc3cccnc23)c1 | -1.01
O=C(c1cc2c(s1)-c1ccccc1OC2)N1CCN(c2ccccc2F)CC1 | 1.05
O=C(NCCCn1ccc2ccccc21)c1scc2c1OCCO2 | -0.98
CCCSc1nc2sc3c(c2c(=O)n1-c1ccc(C)c(Cl)c1)CCN(C(C)=O)C3 | -1.41
COc1cccc(CNC(=O)CCC(=O)N2CC3CCCN3c3ccccc32)c1 (stereo not drawn) | -0.45
Cc1ccc(C(=O)n2nc(-c3ccco3)nc2NCc2cccs2)cc1 | -2.3
Cc1nn(C)c(C)c1CN(C)C(=O)NCC1(c2ccc(F)cc2)CCCC1 | 0.08
CCOc1ccc(C(=O)c2cn(Cc3cccc(OC)c3)c3cc4c(cc3c2=O)OCO4)cc1 | 0.29
CCN(Cc1ccccc1)C(=O)Cn1c(=O)n(-c2ccc(F)c(Cl)c2)c(=O)c2sc3ccccc3c21 | 0.27
O=S1(=O)CCC(Nc2nc3ccc(Cl)cc3s2)C1 (stereo not drawn) | -0.07
CCN(CC)c1ccc(NC(=O)C(NS(=O)(=O)c2cccs2)C(C)C)c(C)c1 (stereo not drawn) | 1.4
CCC(C)OC(=O)/C(C#N)=C\c1ccc(-c2ccccc2Cl)o1 (stereo not drawn) | -0.29
CCOC(=O)c1c(NC(C)=O)c2c3c(sc2n1Cc1nc(-c2ccc(Cl)cc2)oc1C)CCCC3 | -2.53
Cn1c(=O)c2sccc2n2c(CCC(=O)NCc3ccc(Cl)cc3)nnc12 | 0.45
COc1cccc(CN2c3ccccc3-c3nc(SCC(=O)Nc4cccc(C)c4)ncc3S2(=O)=O)c1 | -0.19
COc1ccc(Cc2nccc3cc(OC)c(OC)cc23)cc1OC | -0.95
COc1ccc(-c2cc(OC(=O)c3cccc(C)c3)c3c(C)oc(C)c3c(=O)c2)cc1 | 2.88
CCc1ccc2occ(CC(=O)Nc3ccc(C)c(C)c3)c2c1 | 3.44*
Cc1ccc(NC(=O)C(Cc2ccccc2)NS(=O)(=O)c2ccc3c(c2)oc(=O)n3C)cc1C (stereo not drawn) | 0.54
CCOc1ccc2oc(=O)cc(CN3CCN(C(=O)c4ccc(OC)c(OC)c4)CC3)c2c1 | -0.65
COc1ccc(C(=O)N2CCc3cc(OC)c(OC)cc3C2COc2ccc3c(C)cc(=O)oc3c2)c(OC)c1 (stereo not drawn) | -0.18
Cc1ccc2ncc(C(=O)Nc3ccc(OC(F)(F)F)cc3)c(=O)n2c1 | -0.77
COCC(=O)N1CCC(O)[C@]2(CCCN(C(=O)CCC3CCCC3)C2)C1 (stereo partly drawn) | 0.12

Next results follow:
SMILES | fixLJ activator
CC(C)n1ncnc1-c1ccc(C(=O)NC2CCN(C)C2=O)cc1 (stereo not drawn) | -1.76
COc1ccc(-c2cc(OC(=O)c3ccccc3C)c3c(C)oc(C)c3c(=O)c2)cc1 | -3.18
COc1ccc(-n2c(C)nc3c(cnn3-c3ccc(F)cc3)c2=O)cc1 | -0.28
NCCc1ccc(C(=O)N2CCC(O)[C@@]3(CCCNC3=O)C2)cc1 (stereo partly drawn) | -1.02
Cn1c(=O)c2cc(C(=O)NCCCN3CCN(c4cccc(Cl)c4)CC3)sc2c2ccccc21 | -0.89
COc1ccccc1C(=O)Nc1c(C(=O)Nc2cc(Cl)ccc2C)sc2nc(C)cc(C)c12 | -1.01
CCn1c(=O)cc(SCC(=O)NCc2ccc(F)cc2Cl)c2ccccc21 | -1.23
COc1ccc(N2CCN(C(=O)c3ccc4nc(N5CCC(C)CC5)sc4c3)CC2)cc1 | -0.99
COC(=O)Cc1c(C)c2ccc3c(c2oc1=O)CN(Cc1ccc(C)cc1)CO3 | 1.35
COCC(=O)N1CCC[C@@]2(C(=O)NCc3c(C)noc3C)CCN(C)C[C@@H]12 | -0.09
COc1cc2c(cc1OC)C(COc1ccc3c(C)cc(=O)oc3c1)N(C(=O)C(C)C)CC2 (stereo not drawn) | 1.48
CCOC(=O)c1ccc(NC(=O)CS(=O)(=O)Cc2nc(-c3ccc(C)cc3)oc2C)cc1 | -1.14
COc1ccccc1C(=O)NCCn1cc(SCc2ccccc2Cl)c2ccccc21 | 1.77
CCc1ccccc1N(CC)C(=O)Cn1nc(Cc2ccncc2)c2ccccc2c1=O | -1.52
Cc1ccc(CN(C)C(=O)c2sccc2S(N)(=O)=O)o1 | 0.89
Cc1ccc(O)c(C2=Nc3ccccc3N=C(c3cccc(F)c3)C2)c1 | 0.2
Cc1ccc2oc(-c3ccc(C)c(NC(=O)C(C)(C)Oc4ccc(Cl)cc4)c3)nc2c1 | -2.25
COc1ccc(-c2noc(CSc3nnc(C)n3-c3ccc(F)cc3)n2)cc1 | -1.39
O=C(Nc1ccc(Cl)cc1F)c1cnc2sc(N3CCOCC3)nn2c1=O | -1.04
Cc1nnc(NC(=O)c2nc(S(=O)(=O)Cc3ccccc3)ncc2Cl)s1 | -2.2
COc1ccc(S(=O)(=O)N(CC(=O)Nc2cccnc2)c2ccc(C)cc2)cc1OC | 0.46
CCCC(C)CN1CCCn2nc(CNC(=O)N(C)C)cc2C1 (stereo not drawn) | -0.95
CO[C@@]12CCC(Oc3ccccn3)CC1N(Cc1c(C)nn(C)c1Cl)CC2 (stereo partly drawn) | 0.55
CCN(C(=O)c1sc2cc(OC)ccc2c1Cl)c1ccccc1 | 0.16
Cc1[nH]cnc1-c1nccn1C(CCn1cncn1)c1ccccc1 (stereo not drawn) | 0.15

Reprinted from the part before: two entries, followed by the next part.
SMILES | fixLJ activator
CCN(C(=O)c1sc2cc(OC)ccc2c1Cl)c1ccccc1 | 0.16
Cc1[nH]cnc1-c1nccn1C(CCn1cncn1)c1ccccc1 (stereo not drawn) | 0.15
Cc1ccc(NC(=O)CN(C)S(=O)(=O)c2cccc3cccnc23)c(C)c1 | -0.8
O=C(Cc1ccccc1)N1CCC[C@@]2(CN(Cc3cc(=O)[nH]c(=O)[nH]3)CCC2O)C1 (stereo partly drawn) | -1.29
COc1ccc(NC(C)(C)C(=O)N2CCC(C(O)c3cccs3)CC2)cc1 (stereo not drawn) | 2.11
Cc1ccc(-n2c(=O)c3c4c(sc3n(CC(=O)Nc3cccc(Cl)c3)c2=O)CCCCC4)cc1C | -1.27
CCc1noc(CN2CCCC(CNC(=O)CCCn3cncn3)C2)n1 (stereo not drawn) | -0.25
CCN1CCN(CCCNC(=O)c2cc3c(s2)-c2ccccc2OC3)CC1 | -0.88
COC(=O)c1cc2occc2n1CC(=O)Nc1ccc(N(C)C)cc1 | 0.64
Cc1ccccc1-c1cn[nH]c1C1CCN(c2cncc(CN(C)C)n2)CC1 | -1.53
Cc1coc2c(C)c3oc(=O)c(CCC(=O)NCCc4ccccc4)c(C)c3cc12 | -2.13
O=C(O)C1Cc2c([nH]c3ccccc23)CN1Cc1cscn1 (stereo not drawn) | 0.08
CC(C)N(C)C(=O)CN1CCc2[nH]nc(-c3cccc4ccccc34)c2C1 | -0.26
O=C(NCCn1cc(SCc2ccc(F)cc2)c2ccccc21)c1cccs1 | 1.7
CC(=O)N1CCc2c(sc3c2c(=O)n(-c2ccc(C)cc2)c(=O)n3Cc2ccccc2C)C1 | 0.46
COc1ccc(NS(=O)(=O)c2ccc3c(c2)n(C)c(=O)c(=O)n3C)cc1Cl | 0.16
CCOc1ccc(N2CC(c3nc4ccccc4n3CCOc3ccccc3OC)CC2=O)cc1 (stereo not drawn) | -1.76
CCCN(Cc1ccsc1)C(=O)Cc1cc(=O)[nH][nH]c1=O | -2.86
CCOC(=O)c1ccc(NC(=O)CC2C(=O)N(c3ccccc3)C(=O)N2Cc2cccs2)cc1 (stereo not drawn) | -2.93
CCOc1ccc(C(=O)Nc2ccc3c(c2)OCCO3)cc1Br | -3.06
CCOC(=O)c1sc(NC(=O)c2cc(-c3ccc(F)cc3)on2)c(C(=O)OCC)c1C | -0.57
O=C(c1c(Cl)cccc1Cl)N1CCC2C(C1)OCc1cnnn12 (stereo not drawn) | -1.02
Cc1cc(C)c(NC(=O)Cn2c(=O)n(-c3ccc(CC(=O)NCC4CCCO4)cc3)c(=O)c3ccccc32)c(C)c1 (stereo not drawn) | -1.53
CCOCCCNC(=O)C(c1ccccc1)N(Cc1ccc2c(c1)OCO2)C(=O)c1ccc(NC(C)=O)cc1 (stereo not drawn) | -1.68
CC(C)c1ccc(Nc2c(-c3ccccn3)nc3ccccn23)cc1 | -0.02
CCOc1ccc(NS(=O)(=O)c2ccc3c(c2)CCN3C(C)=O)cc1 | -1.01
CN(CCCCN1CCOCC1)C(=O)C=Cc1cnc(N)nc1 | -1.82

Continuation:
SMILES | fixLJ activator
Cc1ccc(CN2CCSc3ccc(C(=O)N4CCN(c5cccc(C)c5C)CC4)cc32)cc1 | 0.92
Cc1cc(C)c2oc(-c3cccc(NC(=O)c4ccc(-c5cccc([N+](=O)[O-])c5)o4)c3)nc2c1 | -1.48
COc1ccc(-c2[nH]ncc2C(=O)NCc2ccccc2OC)cc1 | -2.41
CCN(CC)C(=O)c1cc(-c2ccc(Cl)cc2)on1 | -0.7
CCN(CC)S(=O)(=O)c1ccc(OC)c(-n2cnnn2)c1 | -2.19
COc1cccc(-c2nc(CS(=O)(=O)CC(=O)Nc3cccc(C(C)=O)c3)c(C)o2)c1 | -0.87
Cc1ccc(-c2nc(S(=O)(=O)c3ccccc3)c(N3CCN(c4ccccc4)CC3)o2)cc1 | 0.96
CCc1nn(CC(=O)NCCOC)c(=O)c2cc3cc(F)ccc3n12 | -1.28
Nc1nc(NC2COCC2Cc2ccncc2)cc(N2CCOCC2)n1 (stereo not drawn) | -0.39
Cc1nccn1CC1(CNC(=O)N2CCN3C(=O)OCC3C2)CC1 (stereo not drawn) | -0.26
COCC(C)(C)C(=O)NC(c1ccncc1)c1ccccc1C (stereo not drawn) | 0.91
COc1ccc(-c2[nH]ncc2C(=O)NCc2ccc(F)cc2)cc1 | -2.24
CCc1ccc(NC(=O)C2CCN(c3cc(C)nc4c(-c5ccc(Cl)cc5)c(C)nn34)CC2)cc1 | -0.23
CCOC(=O)c1ccc(NC(=O)C2CCCN(c3cnccn3)C2)cc1 (stereo not drawn) | -1.5
Cc1cccc(C)c1NC(=O)c1nc(SC(C)C)ncc1Cl | 1.13
Cn1c(=O)c(C(=O)O)nn(-c2ccccc2)c1=O | -0.14
Cc1ccccc1-c1noc(-c2ccc(NC(C)CO)nc2)n1 (stereo not drawn) | -1.08
CCCCN(CCCC)CCCNC(=O)c1ccc2nc(N3CCCCC3)sc2c1 | -0.49
Cc1cc(NC(=O)CN2C(=O)CN(C)C2=O)ccc1NC(=O)c1ccco1 | -0.29
CCCCCn1c(=O)[nH]c2cc(C(=O)Nc3cc(C)cc(C)c3)ccc2c1=O | -1.44
CCc1nn(CC(=O)NCCc2ccc(Cl)cc2)c(=O)c2cc3c(OC)cccc3n12 | -0.73
COCCN(C)C(=O)c1coc(Cn2cnc3ccccc32)n1 | 0.16
Cc1ccc(S(=O)(=O)c2c(Nc3cc(F)ccc3F)sc(C(=O)c3ccc(F)cc3)c2N)cc1 | -0.64
Cn1c(=O)[nH]c(=O)c2c1nc(NCCO)n2CC(O)COc1ccccc1 (stereo not drawn) | 0.5
Cc1ccc(C)c(CSc2cn(CCNC(=O)c3ccccc3F)c3ccccc23)c1 | 0.83

(more compounds)
SMILES | fixLJ activator
COc1ccccc1C(=O)Nc1ccc(S(=O)(=O)Nc2nc(C)cc(C)n2)cc1 | -2.28
Cc1cc2nc(-c3cccc(NC(=O)CSc4ccc(Cl)cc4)c3)oc2cc1C | -3.42
CCOc1ccc(C2CC(=O)c3c([nH]c(C(=O)OCC4CCCCC4)c3C)C2)cc1 (stereo not drawn) | -2.66
CCCCCCNC(=O)N1CCc2[nH]nc(C(=O)NC)c2C1 | -0.05
CCOC(=O)C(CC)n1nc(C)n2c(cc3occc32)c1=O (stereo not drawn) | -0.55
O=C(NCCc1ccccc1)c1nn(-c2ccccc2Cl)nc1CO | -1.37
Cc1ccc(Cc2cnc(NC(=O)C3Cc4ccc(C)cc4C(=O)O3)s2)cc1 (stereo not drawn) | -0.72
CCC(=O)N1CCc2cc(S(=O)(=O)CCC(=O)N3CCN(c4cc(C)ccc4C)CC3)ccc21 | -1.73
Cc1ccc(C2c3c(-c4ccccc4O)n[nH]c3C(=O)N2CCc2ccccc2)cc1 (stereo not drawn) | 1.8
COc1ccc(C2C=C(c3ccc(Cl)cc3)Nc3nc(-c4ccc(Cl)cc4)nn32)cc1 (stereo not drawn) | -1.32
COc1ccc(NC(=O)Cn2nnnc2-c2ccccc2F)c(C)c1 | -0.64
Cc1noc(-c2ccc(S(=O)(=O)N3CCC(Oc4ccncc4)CC3)o2)c1C | -1.45

Filtered by structure: the compounds so far containing a COOH group
SMILES | fixLJ activator
O=C(O)C1Cc2c([nH]c3ccccc23)CN1Cc1cscn1 (stereo not drawn) | 0.08
Cn1c(=O)c(C(=O)O)nn(-c2ccccc2)c1=O | -0.14

Some values from the entries so far.
In fixLJ activator, Cc1cc2nc(-c3cccc(NC(=O)CSc4ccc(Cl)cc4)c3)oc2cc1C reads -3.42
In fixLJ activator, Cc1noc(-c2ccc(S(=O)(=O)N3CCC(Oc4ccncc4)CC3)o2)c1C reads -1.45

Reformatted as comma-separated lines: entries from further up
Compound,fixLJ activator
CCOc1ccc(C2CC(=O)c3c([nH]c(C(=O)OCC4CCCCC4)c3C)C2)cc1 (stereo not drawn),-2.66
CCCCCCNC(=O)N1CCc2[nH]nc(C(=O)NC)c2C1,-0.05
CCOC(=O)C(CC)n1nc(C)n2c(cc3occc32)c1=O (stereo not drawn),-0.55
O=C(NCCc1ccccc1)c1nn(-c2ccccc2Cl)nc1CO,-1.37
Cc1ccc(Cc2cnc(NC(=O)C3Cc4ccc(C)cc4C(=O)O3)s2)cc1 (stereo not drawn),-0.72

Source: PubChem BioAssay (ICCB-Longwood Screening Facility, Harvard Medical School)
